Assay outcomes as filed in PubChem BioAssay.
GRP78 ERSR act: induces the endoplasmic reticulum stress response in human glioma cells | Potency, µM, for inactives: at the highest dose activation, most hits filed as activators | 420,000 tested, 0.02% active | AID 602332 | U87-MG GRP78 promoter luciferase reporter, 16 h; also: potency is read from the fitted curve at half-maximal effect; series mostly up to about 76 µM; % of control where 0% means no effect; nearly all actives have a fitted effect of over 35% in size
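Stably transfected U87-MG glioma cells carrying a GRP78-based luciferase sensor; 16 h compound incubation. Luminescence end-point read 10 min after Bright-Glo addition at room temperature.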
RXFP1 agonist: RXFP1 (human) receptor agonism; Q9HBX9; HEK293T-RXFP1 cAMP TR-FRET, 30 min; response scale: percent of porcine relaxin response, buffer zero; Potency, µM (top dose mostly 57.5 µM), for the others: at the highest dose activation, actives largely listed as activators; 370,000 tested, 0.3% active; AID 2676; also: potency is read from the fitted curve at half-maximal effect; % is scaled to controls: 0 for no effect and ±100 for the full control effect; nearly all actives have a fitted effect of over 60% in size; many of its hits are not listed in these tables
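cAMP rise read by TR-FRET after 30 min, 37C compound exposure (up to 58 uM) in RXFP1-transfected HEK293 cells with Ro 20174 present. EC50 from Hill-equation fits, with 29 nM porcine relaxin as 100% and buffer as basal.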
PI4K2A block: PI4K2A (human) kinase inhibition; Q9BTU6; activity change, negative = inhibition, % at 76.9 µM; 420,000 tested, 0.13% active; AID 1346378; purified PI4K2A, ADP-Glo luminescence, 1 h; stronger effect = lower value; in the data active = activity change below about -50%;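 also: -100% = wells without enzyme as full effect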
Target sequence (Q9BTU6 whole entry, looked up): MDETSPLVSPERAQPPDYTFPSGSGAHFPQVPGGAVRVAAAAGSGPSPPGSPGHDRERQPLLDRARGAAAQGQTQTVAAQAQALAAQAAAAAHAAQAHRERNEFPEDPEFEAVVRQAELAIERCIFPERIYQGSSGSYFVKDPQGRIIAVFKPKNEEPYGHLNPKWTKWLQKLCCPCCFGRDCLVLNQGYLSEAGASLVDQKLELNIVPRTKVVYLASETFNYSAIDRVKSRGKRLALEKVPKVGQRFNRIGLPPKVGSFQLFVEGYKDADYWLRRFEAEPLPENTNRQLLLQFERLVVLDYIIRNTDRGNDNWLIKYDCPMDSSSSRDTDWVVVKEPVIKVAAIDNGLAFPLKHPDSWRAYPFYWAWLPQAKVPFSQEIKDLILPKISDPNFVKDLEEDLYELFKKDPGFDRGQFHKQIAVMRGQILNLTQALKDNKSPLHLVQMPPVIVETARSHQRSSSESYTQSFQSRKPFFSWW
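ADP-Glo luminescence measured ADP generated by PI4K2A enzyme (4 ug/mL before mixing) with 1.2 mM PI substrate (pre-mix) and 300 microM ATP (pre-mix). Tris pH7.5 buffer with MgCl2, Triton X-100; 1 h reaction at ambient temperature.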
Numbers without * were called inactive; · = no result given; & = joins results of further samples. Unless noted, calls follow the shape of the dose curve; as a rule, active = well fitted curve in the direction sought with a large enough effect; inconclusive = small, poorly fitted or top-dose-only effect, or another doubt; inactive = no such curve, though single readings can be large; an effect the other way counts as inactive or inconclusive. The list is partial (hit frequency here may not be typical).

Start of the listing, in advance (four entries):
| SMILES | RXFP1 agonist | GRP78 ERSR act | PI4K2A block |
| --- | --- | --- | --- |
| CN[C@@H]1CC[C@H](c2ccc(Cl)c(Cl)c2)c2ccccc21 | -0.5% | -5% | 4 |
| N#Cc1ccc(CNC(=O)N2CCOCC2)cc1 | -2.3% | -4% | 3 |
| NC(=O)C1CCN(C(=O)Nc2ccccc2)CC1 | 0.4% | -7% | -3 |
| O=C(CCCCCCC(=O)Nc1ccccc1)NO | · | 8%&13% | -3&2 |

The whole of this part (from the top)
| SMILES | RXFP1 agonist | GRP78 ERSR act | PI4K2A block |
| --- | --- | --- | --- |
| CN[C@@H]1CC[C@H](c2ccc(Cl)c(Cl)c2)c2ccccc21 | -0.5% | -5% | 4 |
| N#Cc1ccc(CNC(=O)N2CCOCC2)cc1 | -2.3% | -4% | 3 |
| NC(=O)C1CCN(C(=O)Nc2ccccc2)CC1 | 0.4% | -7% | -3 |
| O=C(CCCCCCC(=O)Nc1ccccc1)NO | · | 8%&13% | -3&2 |
| C[C@@H]1O[C@@H]1P(=O)(O)O | 0.2% | -3% | 5 |
| Cc1ccc(NC(=O)c2sccc2SCc2cccc(C(F)(F)F)c2)cc1 | 0.1% | -4% | 1 |
| COCc1cc(C)nc(SCC(=O)c2ccc(O)c(O)c2)c1C#N | -0.5% | 6% | -4 |
| CC1C(NC(=O)/C(=N/OC(C)(C)C(=O)O)c2csc(N)n2)C(=O)N1S(=O)(=O)O (stereo not drawn) | · | -7% | · |

Reprinted from the listing for reference:
| SMILES | RXFP1 agonist | GRP78 ERSR act | PI4K2A block |
| --- | --- | --- | --- |
| Cc1ccc(NC(=O)c2sccc2SCc2cccc(C(F)(F)F)c2)cc1 | 0.1% | -4% | 1 |
| COCc1cc(C)nc(SCC(=O)c2ccc(O)c(O)c2)c1C#N | -0.5% | 6% | -4 |

Some of these compounds in order of the PI4K2A block value, highest first:
molecule	RXFP1 agonist	GRP78 ERSR act	PI4K2A block
C[C@@H]1O[C@@H]1P(=O)(O)O	0.2%	-3%	5
Cc1ccc(NC(=O)c2sccc2SCc2cccc(C(F)(F)F)c2)cc1	0.1%	-4%	1
NC(=O)C1CCN(C(=O)Nc2ccccc2)CC1	0.4%	-7%	-3
